From PubChem
Biofilm kill mix: mixture kills Candida albicans biofilm cells; 120,000 compounds, 0.02% hits; C. albicans biofilm persisters + clotrimazole, fluorescence viability; primary screen in compound mixtures of four per well; AID 1242; inhibition, % at 7.6 µM;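 active means inhibition above 30.3% in the primary screen of four-compound pools, then above 30% when the compound was retested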;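 further: compounds exposed to preformed 24 h biofilms for 48 h; the number belongs to the whole pool; some results filed as inactive read as strong as hits; inactives centre near 12; 0% = biofilm with clotrimazole alone and 100% = kill control; retested singly at about 60 µM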
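Incubation: 24 h biofilm formation, then 48 h compound exposure, 37 °C | Material: C. albicans biofilms | Buffer or medium: RPMI/MOPS medium, pH 7.0 | Measured by: 2-h Alamar Blue fluorescence, 535/590 nm excitation/emission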
* marks the source's active call; other numbers are inactive results.

A first look (5 entries):
Screening Cc1onc(C(=O)N2CCOCC2)c1[N+](=O)[O-] returned Biofilm kill mix 11.
O=C(O)c1cncc(Br)c1 was read as Biofilm kill mix 22.
`CCCC1NC(=S)N(C2CCCCC2)C1=O` (stereo not drawn) gave Biofilm kill mix 10.
`CCCNC(=O)c1nnsc1S(=O)c1ccc(Cl)cc1` (stereo not drawn) gave Biofilm kill mix 13.
COC(=O)/C(=C/c1c[nH]c2ccccc12)NC(C)=O was read as Biofilm kill mix 2.

This part in full, from the first entry:
Screening Cc1onc(C(=O)N2CCOCC2)c1[N+](=O)[O-] returned Biofilm kill mix 11.
O=C(O)c1cncc(Br)c1 was read as Biofilm kill mix 22.
`CCCC1NC(=S)N(C2CCCCC2)C1=O` (stereo not drawn) gave Biofilm kill mix 10.
`CCCNC(=O)c1nnsc1S(=O)c1ccc(Cl)cc1` (stereo not drawn) gave Biofilm kill mix 13.
COC(=O)/C(=C/c1c[nH]c2ccccc12)NC(C)=O was read as Biofilm kill mix 2.
Screening Cc1ccc(O)c(NC(=S)NC(=O)C(C)C)c1 returned Biofilm kill mix 25.
Cc1ccc(S(=O)(=O)N2CCCC2C(=O)OCc2ccccc2)cc1 (stereo not drawn) was read as Biofilm kill mix 12.
CN(C(=O)c1ccc2c(c1)CCN2S(C)(=O)=O)c1ccccc1 was read as Biofilm kill mix -2.
`CC(=O)Nc1ccc(S(=O)(=O)c2ccc(C)cc2)cc1` gave Biofilm kill mix 34.
S=c1[nH]nc(-c2ccccn2)n1/N=C/c1ccc(Br)s1 was read as Biofilm kill mix 26.
O=C(O)c1ccccc1N(Cc1ccccc1)C(=O)COc1ccccc1 was read as Biofilm kill mix 27.
For C=CCOc1c(Cl)cc(CNc2ccc3[nH]c(=O)[nH]c3c2)cc1OC the results were Biofilm kill mix 5.
`C=CCc1ccc(OCCCCN2CCC(C)CC2)c(OC)c1` gave Biofilm kill mix 17.
C=C1CCN([C@H](C(=O)NCc2cc(OC)c(OC)c(OC)c2)C(C)C)S(=O)(=O)c2ccccc21 was read as Biofilm kill mix 12.
CN(c1ccccc1)S(=O)(=O)c1ccc(Cl)c(C(=O)OCC(=O)NCc2ccco2)c1 was read as Biofilm kill mix 18.
For COc1ccc(/C=C/C(=O)NC(=S)NNC(=O)c2cccs2)cc1 the results were Biofilm kill mix 15.
`C=CCn1cnc2c(nnn2-c2ccc(C)c(Cl)c2)c1=O` gave Biofilm kill mix 10.
O=C(COC(=O)CCc1nc2ccccc2s1)NCc1ccco1 was read as Biofilm kill mix 4.
`Cc1cc([N+](=O)[O-])ccc1NC(=O)c1cncc(Br)c1` gave Biofilm kill mix 23.
`CCOc1ccc(NC(=O)C[n+]2ccccc2)cc1` gave Biofilm kill mix 7.
For COC/C=C/C1=CC2=CC(=O)C(C)(OC(=O)c3cnc4ccccc4n3)C(=O)C2=CN1Cc1ccc(OC)cc1 (stereo not drawn) the results were Biofilm kill mix 22.
For COc1ccc(OC)c(/C=N/NC(=O)Cc2nc3ccccc3[nH]2)c1 the results were Biofilm kill mix 9.
`Cc1ccc(-n2nc(CN3CCOCC3)c(-c3ccccc3)c2N)c(C)c1` gave Biofilm kill mix 8.
For COc1ccc(NC(=O)Nc2cc(NC(=O)Nc3ccc(OC)cc3)c(C)nc2C)cc1 the results were Biofilm kill mix 10.
Screening COc1ccc2c(c1)CCCN2C(N)=Nc1ccc(Cl)cc1 returned Biofilm kill mix 19.
COc1ccc(CNC(=S)N2CCN(Cc3ccccc3)CC2)cc1 was read as Biofilm kill mix 24.
`COc1ccccc1C(O)P(=O)(OC(C)C)c1ccc(N(C)C)cc1` (stereo not drawn) gave Biofilm kill mix 11.
Screening CCOC(=O)c1cc(NC(=O)CC(C)(C)CC(=O)O)ccc1N1CCCCC1 returned Biofilm kill mix 25.
Cc1cc(Br)ccc1SCC(=O)OCC(=O)NC1CC1 was read as Biofilm kill mix 2.
Screening S=C(Nc1ccc(Cl)cc1)NN1CCOCC1 returned Biofilm kill mix 15.

6 neighbouring entries from above, for reference:
For COc1ccc(/C=C/C(=O)NC(=S)NNC(=O)c2cccs2)cc1 the results were Biofilm kill mix 15.
`C=CCn1cnc2c(nnn2-c2ccc(C)c(Cl)c2)c1=O` gave Biofilm kill mix 10.
O=C(COC(=O)CCc1nc2ccccc2s1)NCc1ccco1 was read as Biofilm kill mix 4.
`Cc1cc([N+](=O)[O-])ccc1NC(=O)c1cncc(Br)c1` gave Biofilm kill mix 23.
`CCOc1ccc(NC(=O)C[n+]2ccccc2)cc1` gave Biofilm kill mix 7.
For COC/C=C/C1=CC2=CC(=O)C(C)(OC(=O)c3cnc4ccccc4n3)C(=O)C2=CN1Cc1ccc(OC)cc1 (stereo not drawn) the results were Biofilm kill mix 22.

(list continues)
Screening Cc1cc(C)cc(N(CCC(=O)O)S(=O)(=O)c2ccc3ccccc3c2)c1 returned Biofilm kill mix 6.
`O=C(NCc1ccco1)C(=O)NCC1OCCN1C(=O)c1ccc(Cl)cc1` (stereo not drawn) gave Biofilm kill mix 27.
Screening O=C(O)c1nn(-c2ccccc2)c(-c2ccccc2)c1C(=O)c1ccccc1 returned Biofilm kill mix 7.
Screening Cc1ccc(C(=O)NC(NC(=O)c2ccc(C)cc2)c2cccc([N+](=O)[O-])c2)cc1 returned Biofilm kill mix 23.
`Cc1cc(C)nc(/N=C2\NC(=O)CC(C(=O)O)N2c2cccc(Cl)c2)n1` (stereo not drawn) gave Biofilm kill mix 0.
For Cc1cccc(CN2CCN(C(=S)Nc3ccccc3)CC2)c1 the results were Biofilm kill mix 27.
For Cc1onc(-c2c(Cl)cccc2Cl)c1COC(=O)c1ccc([N+](=O)[O-])cc1 the results were Biofilm kill mix 8.
CCOc1ccc(N/C(N)=N/c2nc(CSc3nnc(C)s3)cc(=O)[nH]2)cc1 was read as Biofilm kill mix 7.
For COC(=O)c1ccc(N=NN2CCOCC2)cc1 the results were Biofilm kill mix 21.
Screening CC1CC(=O)Nc2ccccc2N1S(=O)(=O)c1ccc(F)cc1F (stereo not drawn) returned Biofilm kill mix 19.
`CCOC(=O)N1CCN(C(=O)c2c(N)no[n+]2[O-])CC1` gave Biofilm kill mix 0.
O=C(NCc1ccccc1F)C1CCN(C(=O)c2sccc2-n2cccc2)CC1 was read as Biofilm kill mix 11.
For O=C(Cc1ccc(F)cc1)NC1CCSC1=O (stereo not drawn) the results were Biofilm kill mix 13.
Cc1nn(C)c(=O)n1N(C)c1ncc(C(F)(F)F)cc1Cl was read as Biofilm kill mix 14.
For O=C(NC1CCCc2ccccc21)c1cn2ccccc2n1 (stereo not drawn) the results were Biofilm kill mix 15.
Screening CCn1c(COc2ccc(=O)n(-c3ccccc3)n2)n[nH]c1=S returned Biofilm kill mix 15.
`Cc1ccc(NCc2ccc(O)c3ncccc23)cc1C` gave Biofilm kill mix 4.
For O=C(CCN1C(=O)/C(=C/c2ccc(F)cc2)SC1=S)NNC(=O)c1cccnc1 the results were Biofilm kill mix 18.
`CC1CCC/C(=N\Nc2ccc(Cl)c(C(=O)O)c2)C1` (stereo not drawn) gave Biofilm kill mix 7.
For O=C(O)CN1C(=O)/C(=C/c2ccc(N3CCCCC3)o2)SC1=S the results were Biofilm kill mix 27.
`COc1cc(OC)c(-c2cc(C(=O)O)ccc2OC)c(OC)c1` gave Biofilm kill mix 9.
Cc1cc(=O)oc2cc(OCC(=O)NCc3ccco3)ccc12 was read as Biofilm kill mix 8.
For CCOC(=O)CSc1nc2sc3c(c2c(=O)n1C1CCCCC1)CCN(C)C3 the results were Biofilm kill mix 20.
For CC1(C)CC(NC(=S)Nc2ccc(S(N)(=O)=O)cc2)CC(C)(C)N1 the results were Biofilm kill mix 16.
Screening O=c1c(Cc2ccc(F)cc2)c(O)ccn1CCc1cnc[nH]1 returned Biofilm kill mix 3.
`O=C(CN1C(=O)c2cccc3cccc1c23)N1CCN(Cc2ccc3c(c2)OCO3)CC1` gave Biofilm kill mix 8.
NC(=O)c1cnn(-c2cc(Oc3ccccc3)ncn2)c1N was read as Biofilm kill mix 30.
Cc1onc(-c2ccc(Cl)cc2Cl)c1C(=O)/C=C/N(C)C was read as Biofilm kill mix 8.
Screening Cc1ccc(CNC(=O)C(=O)NCC2OCCN2C(=O)c2ccc3c(c2)OCO3)cc1 (stereo not drawn) returned Biofilm kill mix 23.
Cc1ccc(C(=O)N/N=C/C=C/c2ccccc2)o1 was read as Biofilm kill mix 21.
COCCNC(=O)C(c1ccncc1)N(C(=O)c1sc(C)nc1C)c1cccc(C)c1 (stereo not drawn) was read as Biofilm kill mix 5.
For O=C(Nn1c(SCc2ccc(F)cc2)nc2ccsc2c1=O)c1ccccc1 the results were Biofilm kill mix -13.
For COc1ccc(C(=O)N=c2sccn2C)cc1 the results were Biofilm kill mix 11.
CCOC(=O)c1sc(NC(=O)c2ccc(S(=O)(=O)N3CCOCC3)cc2)nc1-c1ccccc1 was read as Biofilm kill mix -14.
`Cn1c(=O)n(Cc2ccccc2F)c(=O)c2c1nc1n2CCN1Cc1ccco1` gave Biofilm kill mix 12.
`CC(C)(C)c1ccc(NC(=O)c2ccsc2)cc1` gave Biofilm kill mix 26.
`COc1ccc(CNC(=O)CSc2nnc3nc(C)cc(C)n23)cc1OC` gave Biofilm kill mix 15.
Screening COCCNC(=O)/C=C/c1c(Cl)cccc1Cl returned Biofilm kill mix 22.
CC(=O)Oc1ccccc1N(C(C)=O)S(=O)(=O)c1ccc2ccccc2c1 was read as Biofilm kill mix 7.
For COC(=O)C/C=C/[C@@H](C)[C@@H](/C=N/O[C@@H](C)c1cn([C@H](CO)Cc2ccccc2)nn1)NS(=O)(=O)c1ccc(C)cc1 the results were Biofilm kill mix 8.
For O=[N+]([O-])c1ccc(-c2cnc(SC(c3ccccc3)c3ccccc3)[nH]2)cc1 the results were Biofilm kill mix 23.
`Cc1nn(C)cc1/C=N/NC(=S)Nc1ccc(Cl)cc1Cl` gave Biofilm kill mix 18.
Screening O=C(NCc1cccc(C(F)(F)F)c1)c1cccc(Cl)c1Cl returned Biofilm kill mix 6.
`Nc1ccccc1C(=O)Nc1nccs1` gave Biofilm kill mix 3.
Screening O=[N+]([O-])c1ccccc1/C=C/C=N/Nc1ccc(S(=O)(=O)Nc2ccc(Cl)cc2)cc1[N+](=O)[O-] returned Biofilm kill mix 10.
For O=C(Nc1cc(S(=O)(=O)N2CCOCC2)ccc1N1CCCC1)c1ccc2c(c1)S(=O)(=O)c1ccccc1C2=O the results were Biofilm kill mix 10.
Screening CC(C)CCNC(=O)CO/N=C/c1ccccc1OC(F)F returned Biofilm kill mix 21.
Screening CCN(CC)c1ccc([N+](=O)[O-])cc1/C=N/NC(=O)CC#N returned Biofilm kill mix 10.
COc1cc(/C=N/n2c(=S)[nH]nc(C)c2=O)cc([N+](=O)[O-])c1O was read as Biofilm kill mix 8.
For N#Cc1c(Cl)nc2c(c1C#N)CCCC2 the results were Biofilm kill mix 29.
For CC(=O)N1CCC(N(CCN2CCOCC2)C(=S)Nc2ccccc2C)CC1 the results were Biofilm kill mix 23.
`O=C(c1ccccc1F)N1C(=O)c2cccc3cccc1c23` gave Biofilm kill mix 7.
`Cc1cc(NC(=O)CSc2ncn[nH]2)no1` gave Biofilm kill mix 0.
`N#C/C(C(N)=O)=C1/SC=C(c2ccccc2)N1c1ccccc1` gave Biofilm kill mix 14.
COc1ccccc1N1CCN(C(=O)COc2ccc(S(=O)(=O)NC(C)C)cc2)CC1 was read as Biofilm kill mix 17.
Cc1cc(F)ccc1NCC(=O)Nc1ccc(Br)cc1C was read as Biofilm kill mix 18.
`Cc1cccc(C(=O)Nc2scc(CC(C)C)c2C(=O)O)c1` gave Biofilm kill mix 8.
`Cc1cc(=O)[nH]c(SCC(=O)NCCC2=CCCCC2)n1` gave Biofilm kill mix 11.
`Cc1ccc(NC(=O)CN(C)Cc2cc(=O)n3ccsc3n2)cc1` gave Biofilm kill mix 19.
CN1CCN(C(=S)c2ccc(Br)cc2)CC1 was read as Biofilm kill mix 9.
`COc1cccc(/C=N/NC(=S)Nc2cccnc2)c1` gave Biofilm kill mix 16.
Screening O=C(CCCN1C(=O)/C(=C\c2cccs2)SC1=S)Nc1ccc(C(=O)O)cc1 returned Biofilm kill mix 10.
For O=C(N/N=C\c1ccc([N+](=O)[O-])s1)c1cncc(Br)c1 the results were Biofilm kill mix 15.
COc1ccc(-n2c(O)c(/C=N/NS(=O)(=O)c3ccc(C)cc3)c3ccccc3c2=O)cc1OC was read as Biofilm kill mix 9.
Screening Cc1cc(C)cc(NC(=O)Cn2c(SCc3cc(C)ccc3C)nc3ccncc32)c1 returned Biofilm kill mix 7.
Screening CCC(=O)Nc1cccc(NC(=O)c2ccccc2Br)c1 returned Biofilm kill mix 5.
Cc1ccn2c(C(=O)CSc3ccccc3)c(C)nc2c1 was read as Biofilm kill mix 5.
NC(=O)NC(=O)CSc1nnc(-c2ccc(Cl)cc2)n1CC1CCCO1 (stereo not drawn) was read as Biofilm kill mix 6.
O=C(CN1C(=O)NC2(CCCCC2)C1=O)NC1CCCc2ccccc21 (stereo not drawn) was read as Biofilm kill mix 12.
For Cc1ccc2[nH]c(CN3CCC(CO)(CC4CCCCO4)CC3)c(C)c2c1 (stereo not drawn) the results were Biofilm kill mix 6.
For CC[C@H](C)[C@@H](NC(=O)O[C@@H]1C(=O)c2cc(OC)ccc2O[C@H]1c1ccc(OC)c(Br)c1)C(=O)OC the results were Biofilm kill mix 17.
Screening O=C(Nc1ccccc1N1CCOCC1)c1cc(F)cc(F)c1 returned Biofilm kill mix 18.
For O=C(Nc1ccccc1Br)c1c(F)cccc1Cl the results were Biofilm kill mix 15.
`Cc1cc([N+](=O)[O-])nn1CCCC(=O)NCc1ccc(F)cc1` gave Biofilm kill mix 16.
`Cc1ccc(CN2CCN(/N=C/c3ccc(C)s3)CC2)c(C)c1` gave Biofilm kill mix 10.
For COc1ccc(S(=O)(=O)n2ccc(-c3ccc4c(c3)CCC(C)(C)O4)n2)cc1 the results were Biofilm kill mix 22.

Only part of the results is shown; the hit share may differ from the screen's.
